High-throughput results from PubChem.
ALR H2O2 inh = blocks human ALR sulfhydryl oxidase activity; P55789; purified ALR, DTT oxidation, H2O2 HRP-luminol luminescence; inhibition, % (test concentration not listed); 290,000 tested, 3.8% active; AID 485317;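 active = mean and each replicate at 75% or more; inconclusive = only one of the two met; inactive = neither met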;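 note: stock transfer was 7.5 nL into about 7.5 µL; 0% = neutral wells and 100% = wells with inactivated enzyme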
Target sequence (P55789 whole entry, looked up): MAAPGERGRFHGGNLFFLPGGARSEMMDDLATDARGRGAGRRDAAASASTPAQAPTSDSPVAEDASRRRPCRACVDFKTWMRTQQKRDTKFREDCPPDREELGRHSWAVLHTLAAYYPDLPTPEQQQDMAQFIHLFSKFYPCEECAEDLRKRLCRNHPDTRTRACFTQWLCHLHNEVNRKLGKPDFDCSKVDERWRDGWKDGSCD
Beta2AR agonist = activates human beta-2 adrenergic receptor causing internalization | P07550 | AID 504454 | Am2.2-beta2AR cells, FAP receptor internalization, flow cytometry; reference of the scale not given here | response, % (concentration not given with the values) | 340,000 tested, 0.43% active;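 active = response above a set limit, near 3 SD of response in nonfluorescent compounds, cut at about 42% in these data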;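 note: stock transfer was 100 nL into about 11 µL; a reference agonist was the positive control; negative values mostly stem from fluorescent compounds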
Target sequence (P07550 whole entry, looked up): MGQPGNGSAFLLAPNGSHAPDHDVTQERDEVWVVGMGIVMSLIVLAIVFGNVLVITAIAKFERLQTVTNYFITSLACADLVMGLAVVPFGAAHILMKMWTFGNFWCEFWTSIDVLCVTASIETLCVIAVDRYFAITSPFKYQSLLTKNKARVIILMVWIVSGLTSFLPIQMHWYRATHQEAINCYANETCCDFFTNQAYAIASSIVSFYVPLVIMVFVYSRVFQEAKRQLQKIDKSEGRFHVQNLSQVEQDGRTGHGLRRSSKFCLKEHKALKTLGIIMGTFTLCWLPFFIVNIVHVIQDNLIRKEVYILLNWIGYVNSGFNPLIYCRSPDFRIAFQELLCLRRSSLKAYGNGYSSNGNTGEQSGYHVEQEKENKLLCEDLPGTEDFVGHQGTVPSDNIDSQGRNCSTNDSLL
HNF4A DNA FP = change in binding of human HNF4 alpha to DNA | activity change, % at 10 µM | P41235 | 360,000 tested, 0.3% active | HNF4a-FITC DNA binding, fluorescence polarization, 1 h | AID 1224865; in the data active = activity change above about 30%, passing the limit was not always enough;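 note: controls were the assay level and a saturating level of protein; the project sought stronger binding though the title names inhibitors; some compounds called inactive have numbers as strong as hits; positive values seem to mean higher polarization but the record does not say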
Calb FLC = C. albicans growth modulation with fluconazole | growth inhibition, % (concentration not given with the values) | 300,000 tested, 0.57% active | C. albicans CaCi-2 (fluconazole-resistant clinical isolate) + fluconazole, Alamar Blue growth, 48 h;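 active = most replicates above 75%; inconclusive = exactly half above 75%; inactive = most below 75%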;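 note: all wells also contain fluconazole at 8 µg/ml as a sub-toxic cotreatment; 0% = median of DMSO wells and 100% = median of geldanamycin control wells; wells of about 8 µL received 7.5 nL stock; the first replicate is given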
LANA-H2A inh = blocks KSHV LANA binding to histone H2A/H2B | inhibition, % (concentration not given with the values) | Q9QR71 | cell-free LANA-H2A/H2B peptide, fluorescence polarization | 320,000 tested, 0.6% active; in the data active = inhibition mostly above about 10%, no sharp cut-off; inactive = mostly below about 6.7%;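 note: stock transfer was 7.5 nL into about 10 µL; 0% = median of vehicle wells and 100% = median of positive control wells; one replicate is shown; the record names a cut of 25% in any replicate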
RanGTP-Impb inh = disruptors of Ran-importin-beta complex formation – biochemical, FRET, CFP-Ran, YFP-importin-beta, homogeneous, primary screen. cell-free CFP-Ran/YFP-importin-beta FRET ratio. inhibition, % (test concentration not listed). 300,000 tested, 1.1% active. AID 2216;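 active = most replicates above 15%; inconclusive = exactly half above 15%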;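 note: 0% = DMSO wells and 100% = Ran loaded with GDP instead of GTP; wells of about 40 µL received 100 nL stock; the first replicate is given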
Vif A3G = HIV-1 Vif–A3G interaction blockers – biochemical, TR-FRET, GST-Vif 1-94, biotin-A3G peptide, dose response retest, primary screen (AID 1117319); inhibition, %, or IC50 in µM where a hit was titrated; TR-FRET GST-Vif / biotin-A3G peptide binding; higher % means a stronger effect; test concentration not given here; strong numbers were not always called active; 260,000 tested, 0.57% active;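 active = above the screen mean plus three standard deviations and confirmed in dose response; inconclusive = results disagree or hit not tested in dose response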;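 note: Vif residues 1-94 fused to GST binding biotinylated APOBEC3G peptide 110-148; 0% = full assay without inhibitor and 100% = GST in place of GST-Vif; retest series ran down from 100 µM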
* hit, by the source's call; ? = inconclusive; / = no result given; & = joins results of further samples. Compounds as they come; any-hit rate near 6.3%.

structure	ALR H2O2 inh	Beta2AR agonist	HNF4A DNA FP	Calb FLC	LANA-H2A inh	RanGTP-Impb inh	Vif A3G
N#CCC(=N)N1CCN(c2ccc(F)cc2)CC1	5	-4	-0.4	4	-2.3	0.7	/
CCC(C)NC(=O)CSc1nnc(-c2ccoc2C)n1CC1CCCO1 (configuration not stated)	/	0	-1.6	-10	-3.9	-0.6	0%
COc1cc2c(cc1OC)C(c1cccc(F)c1)CC(=O)N2 (configuration not stated)	1	14	0.2	2	-5.4	-0.7	13%
Cc1ccc2cc(CCNC(=O)CCCc3ccccc3)c(=O)[nH]c2c1C	-1	-15	0.3	-3	-0.9	1.8	/
O=C(NC(=S)Nn1cnnc1)c1ccccc1	8	-9	-0.8	-5	-0.7	-1.0	/
CC(=O)N1CCc2cc(S(=O)(=O)NC(Cc3ccccc3)C(=O)O)ccc21 (configuration not stated)	-12	0	-0.5	2	-1.3	5.6	/
O=C(COC(=O)C1CCN(/C=C/C(=O)C(F)(F)F)CC1)Nc1ccccc1	-14	-2	-3.1	0	1.8	-5.6	/
CCCNS(=O)(=O)c1ccc(OCC(=O)N(C)Cc2ccccc2)cc1	/	-2	-2.1	8	-3.4	3.7	26%
COCCCNC(=O)CSc1nc2c(sc3ccccc32)c(=O)n1CCCC(=O)NCC1CCCO1 (configuration not stated)	-1	-8	2.1	?	3.3	2.6	1%
Cc1c(NS(=O)(=O)c2ccccc2)c(=O)n(-c2ccccc2)n1C	-7	-3	4.5	9	-0.3	-2.4	4%
Cc1nc(-c2noc(-c3cccc(Cl)c3)n2)c(C(F)(F)F)o1	-2	-4	0.9	-38	-11	4.4	/
O=C(NC(=O)N1CCN(c2ccc([N+](=O)[O-])cn2)CC1)c1ccccc1F	-5	1	0.6	6	1.0	-2.9	?
CCOc1ccc2[nH]c(=O)c(CN(Cc3ccc(F)cc3)C(=O)c3ccco3)cc2c1	-9	3	-1.4	3	-2.4	-4.4	-1%
O=S(=O)(c1ccc2ccccc2c1)N1CCN(C2CCN(Cc3ccccc3)CC2)CC1	-1	-1	1.4	1	0.0	1.8	8%
COc1ccc(-c2cc(C(=O)NCCCN3CCOCC3)no2)cc1	1	2	2.1	0	3.7	0.5	/
Cc1ccc2c(C)nc(Nc3nc(CSc4nnc(C)s4)cc(=O)[nH]3)nc2c1	-4	-13	3.5	26	-1.4	/	0%
Cc1ccc(/C=C/C(=O)OCC(=O)NCCc2ccc(S(N)(=O)=O)cc2)o1	3	1	0.3	/	-0.7	/	-3%
Cc1ccc(C(=O)OCC(=O)NC2CCCc3ccccc32)o1 (configuration not stated)	-2	-1	-0.4	/	1.5	/	/
COc1cc(/C=C/C2=NNC(=O)CC2)cc(OC)c1OC	/	-6	4.7	-9	4.9	-1.7	0%
COc1ccc(CNC(=O)c2nc(S(=O)(=O)Cc3ccccc3)ncc2Cl)cc1	10	28	3.9	-11	4.3	4.1	1%
CCOC(=O)C1OC2(CCCC2)OC1C(=O)OCC (configuration not stated)	/	2	-2.9	/	/	/	-12%
COc1ccc(CN(C(=O)c2cccs2)c2nccs2)cc1OC	/	-20	4.3	15	1.0	-2.3	-2%
CC1=C(C#N)C(=O)N(C2CCS(=O)(=O)C2)C(=O)/C1=C\c1ccc(C)o1 (configuration not stated)	-10	/	/	-1	12	-2.4	1.4µM*
CC(C)(O)C#Cc1ccc(C(=O)NC2CCCCC2)s1	97*	8	-4.8	-15	-3.0	-12	-7%
COc1cc(Cl)cc(C=O)c1OCC(=O)O	21	3	0.6	-18	0.9	0.6	-8%
O=C(CSc1nc2ccccc2c(=O)n1-c1ccccc1Cl)NCC1CCCO1 (configuration not stated)	/	4	1.3	/	-4.1	/	-2%
CCN(c1ccccc1)P(=O)(Nc1ccccc1)Nc1ccccc1	/	-2	-3.8	3	1.5	3.4	-1%
O=C(c1ccc(Cl)cc1)c1coc2ccc(O)cc12	8	0	-1.6	-8	2.1	2.8	-2%
COc1ccc(CCN2CC(C(=O)Nc3ccccc3F)CC2=O)cc1OC (configuration not stated)	-17	-8	3.8	-11	-1.2	-1.6	6%
CN=c1oc2ccc(Cl)cc2cc1C(N)=O	/	5	1.1	5	-0.3	3.2	-1%
O=C(O)CC1(CC(=O)NCc2ccc(-c3cccs3)cc2)CCCCC1	/	1	0.3	-1	-2.6	-2.1	10%
CNC(=O)c1ccc(-c2sc3nc(N4CCOCC4)c4c(c3c2N)CCCC4)o1	/	20	2.1	31	0.1	8.3	9%
O=C(N/N=C/C1CC=CCC1)c1ccc(O)cc1O (configuration not stated)	14	2	2.4	-5	4.1	4.2	10%
CCN(Cc1ccccc1)C(c1cc2cc(C)ccc2[nH]c1=O)c1nnnn1CCOC (configuration not stated)	-8	2	0.1	-4	0.6	-3.5	1%
Cc1ccc(NC(=S)NC(=O)c2ccc(Br)o2)c(C)c1	-2	-1	-3.2	18	-4.0	-2.4	/
Cc1cc(C)cc(-n2ccnc2SCC(=O)Nc2ccc3c(c2)OCCO3)c1	/	0	-1.6	-17	-0.1	?	1%
CCN(CC)S(=O)(=O)c1ccc2c(c1)nc(CCC(=O)OCC(=O)Nc1c(F)cccc1F)n2C	/	0	3.0	-10	/	10	/
O=C(Cc1ccccc1)NCc1ccncc1	-18	-1	-0.2	3	-5.5	-0.4	2%
C/C(=N\S(=O)(=O)c1ccc(C)cc1)Nc1cc(C(C)C)c(O)cc1C	11	6	1.6	-8	-6.2	2.3	/
COc1ccccc1S(=O)(=O)Nc1cccc(S(=O)(=O)N2CCCC2)c1	-4	-3	0.4	/	3.8	/	1%

At a glance, some entries already given:
structure	ALR H2O2 inh	Beta2AR agonist	HNF4A DNA FP	Calb FLC	LANA-H2A inh	RanGTP-Impb inh	Vif A3G
N#CCC(=N)N1CCN(c2ccc(F)cc2)CC1	5	-4	-0.4	4	-2.3	0.7	/
CCC(C)NC(=O)CSc1nnc(-c2ccoc2C)n1CC1CCCO1 (configuration not stated)	/	0	-1.6	-10	-3.9	-0.6	0%

Three structures out of the list, arranged by SMILES length, highest first.
structure	ALR H2O2 inh	Beta2AR agonist	HNF4A DNA FP	Calb FLC	LANA-H2A inh	RanGTP-Impb inh	Vif A3G
CNC(=O)c1ccc(-c2sc3nc(N4CCOCC4)c4c(c3c2N)CCCC4)o1	/	20	2.1	31	0.1	8.3	9%
COc1ccccc1S(=O)(=O)Nc1cccc(S(=O)(=O)N2CCCC2)c1	-4	-3	0.4	/	3.8	/	1%
CCN(c1ccccc1)P(=O)(Nc1ccccc1)Nc1ccccc1	/	-2	-3.8	3	1.5	3.4	-1%

(continued)
structure	ALR H2O2 inh	Beta2AR agonist	HNF4A DNA FP	Calb FLC	LANA-H2A inh	RanGTP-Impb inh	Vif A3G
C(=C\n1nnc2ccccc21)/c1ccccn1	/	-19	-4.0	-4	-1.7	3.1	/
Cn1cc(CCNC(=O)C2CCC(=O)N(CCc3ccc(Cl)cc3)C2)cn1 (configuration not stated)	-11	-3	0.2	4	-3.9	1.2	/
COc1ccc(NC(=O)Nc2ccc3c(c2)OCO3)c(C)c1	-10	-5	-0.8	26	-2.4	2.3	6%
Cc1ccc(N(CC(=O)Nc2ccccc2-c2ccccc2)S(=O)(=O)c2ccccc2)c(C)c1	/	14	-1.4	-7	3.2	1.0	-3%
CN(C(=O)CCNC(=O)Cn1cnc2ccccc2c1=O)c1ccccc1F	0	-2	0.6	5	0.5	10	/
CCSc1ncc(C)cc1[N+](=O)[O-]	-9	21	-2.1	-7	0.5	3.7	/
Cc1cc(Cl)ccc1OCC(=O)NNC(=O)C1CCCO1 (configuration not stated)	-2	9	-1.1	?	-0.1	1.9	1%
c1ccc(OCCSc2nnnn2C2CCCCC2)cc1	1	-16	-4.6	10	-2.7	5.7	-1%
CSCCC(NC(N)=O)C(=O)N(C)CC(=O)Nc1cc(C)ccc1C (configuration not stated)	-10	-1	0.2	-10	-4.1	3.6	?
c1ccc(-c2nc3ccccc3o2)nc1	-9	1	3.6	-6	1.9	5.0	6%
Cc1cccc(C(=O)n2c(=S)nc3ccccn32)c1	/	-1	-1.2	4	-0.8	1.0	-1%
CC(C)OCCCn1c(SCC(=O)N2CCc3ccccc32)nc2ccccc2c1=O	-6	-5	-14	11	4.5	4.8	/
COC(=O)c1cccc(NC(=O)Cc2coc3cc(OC)ccc23)c1	-3	2	1.7	-7	2.2	0.4	27%
COc1ccc(NC(=O)Nc2nnc(CC(=O)NCc3ccccc3)s2)cc1	/	4	-1.2	?	6.3	4.1	4%
C=CCn1c(SCC(=O)c2cc(C)n(C(C)COC)c2C)nc2sc(C)c(C)c2c1=O (configuration not stated)	/	24	3.9	44	3.0	?	27µM*
CC(=O)/C(=N/Nc1ccc([N+](=O)[O-])cc1)N1CCCc2ccccc21	2	16	4.0	-8	-2.4	0.6	/
COc1ccc(-n2cnnc2SCC(=O)N2CCN(S(=O)(=O)c3ccccc3)CC2)cc1	/	11	-0.9	0	-7.9	1.6	6%
CC1CNCCN1S(=O)(=O)c1cccc2cnccc12 (configuration not stated)	3	-6&-1	0.0&-0.9	-11	-0.9&1.4&3.5	-2.4&0.7	-10%
COc1ccc(C2C(C(N)=O)=C(C)Nc3nc(CCCO)nn32)cc1OC (configuration not stated)	-8	-5	3.5	4	-7.0	5.7	/
COc1cc(OCc2ccccc2)c2c(CCC(=O)O)cc(=O)oc2c1	/	8	2.3	/	/	/	-7%
COC(=O)c1ccc(CNC(=O)COC(=O)/C=C/c2ccc(O)c(OC)c2)cc1	/	20	-0.1	/	1.9	/	-5%
Nn1c(SCC(=O)Nc2ccccc2)nnc1C1CCCCC1	-6	-7	2.8	-6	-5.3	1.9	2%
O=C(c1ccco1)N1CCN(C(=O)c2snc3ccc(Cl)cc23)CC1	-14	-1	0.7	1	3.7	-3.5	1%
Cc1cc(C(=O)Nc2ccc(Cl)cc2)n(-c2ccccc2)n1	-4	-4	1.1	-7	4.2	-0.9	-7%
Cc1sc(NC(=O)COc2cccc(-n3cnnn3)c2)c(C#N)c1C	4	-8	5.7	-16	1.1	-1.0	0%
COc1ccc(NC(=O)C2Cc3cccc(OC)c3O/C2=N\O)cc1 (configuration not stated)	-4	-2	0.2	-3	-0.3	-1.3	3%
c1ccc(-c2nc3nc4ccccc4nc3n2Cc2ccco2)cc1	8	-12	-2.0	18	1.8	-0.3	11%
COc1ccc(CC(=O)OCC(=O)Nc2ccc(Cl)cn2)cc1	-8	-8	-1.2	-10	1.1	2.1	8%
C[C@H]1CN([C@@H](C)CO)C(=O)c2cc(NC(=O)C3CCCCC3)ccc2O[C@H]1CN(C)S(=O)(=O)c1ccccc1	2	-4	-0.4	/	-1.2	/	/
COc1cccc(OC)c1OCCCCN1CCCCC1	1	-3	-1.9	-6	1.1	?	/
CC(Cc1ccccc1)N1C(=O)c2cccc([N+](=O)[O-])c2C1=O (configuration not stated)	-6	-3	-0.2	-9	4.7	1.9	/
COc1ccccc1NC(=O)C(=O)c1cn(CC(=O)N2CCOCC2)c2ccccc12	-2	3	0.3	-1	2.3	-0.2	/

Quoted from the listing.
COCCCNC(=O)CSc1nc2c(sc3ccccc32)c(=O)n1CCCC(=O)NCC1CCCO1 (configuration not stated) in LANA-H2A inh reads 3.3
COc1cc(OCc2ccccc2)c2c(CCC(=O)O)cc(=O)oc2c1 in Beta2AR agonist reads 8
